Sa growth inh: inhibitors of Staphylococcus aureus growth at 42 °C. S. aureus RN4220 growth, OD600, 20 h; hits give low values. relative growth, % (test concentration not listed). 170,000 tested, 0.53% active. AID 720641;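 active means growth at 42 °C up to 50% and 20 or more points under that at 30 °C, or under 10% at both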;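 further: 300 nL library stock went into each well; scaled to the means of positive and negative controls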
HCMV NEC inh: disrupts HCMV UL50-UL53 complex binding. inhibition, % (test concentration not listed). 190,000 tested, 0.15% active. AID 1918969. HTRF UL50-UL53 interaction, normalized percent inhibition;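 active means both replicates at 50% or more, plus weaker picks with an unusually low signal ratio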;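 further: stock transfer was 100 nL into about 20 µL; 0% = negative control wells and 100% = wells with untagged competitor protein; inactives centre near -12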
GIV-Gai inh: blocks GIV peptide binding to rat Galpha-i3 | Galpha-i3/FITC-GIV peptide fluorescence polarization, 90 min; hits give low values; scaled: aluminum fluoride 0%, vehicle 100% | percent of control (FP), % (test concentration not listed) | 210,000 tested, 0.42% active | AID 1224905;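 active means replicate mean at 85% of control or lower, very high polarization wells dropped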;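 further: wells of about 15 µL received 100 nL stock; the first replicate is given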
Target sequence (P08753 whole entry, looked up): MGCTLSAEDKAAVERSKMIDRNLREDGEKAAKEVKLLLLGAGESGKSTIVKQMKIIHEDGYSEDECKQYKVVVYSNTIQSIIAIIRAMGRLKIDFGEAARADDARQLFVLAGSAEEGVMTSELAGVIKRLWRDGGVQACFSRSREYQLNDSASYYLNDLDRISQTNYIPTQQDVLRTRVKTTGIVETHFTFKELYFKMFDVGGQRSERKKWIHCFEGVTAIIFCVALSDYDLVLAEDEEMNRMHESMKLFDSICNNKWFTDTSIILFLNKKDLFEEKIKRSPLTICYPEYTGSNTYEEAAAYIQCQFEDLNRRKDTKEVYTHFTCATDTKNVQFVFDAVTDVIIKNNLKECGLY
Sa growth inh second temp: recorded beside Sa growth inh, whose call it bears; relative growth, %; measured here: growth at 30 °C;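 optical density after 20 h as mean of two plates; 100% = untreated growth and lower means inhibition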
Numbers without * were called inactive; & = joins results of further samples.

CCc1ccc(-n2nc3cc(C)c(NC(=O)c4cc(OC)cc(OC)c4)cc3n2)cc1 was read as Sa growth inh 94, HCMV NEC inh -26, GIV-Gai inh 106 and Sa growth inh second temp 90.
Screening CCOc1ccc(N2C(=O)CN(CCN(C)C)[C@H]3CS(=O)(=O)C[C@H]32)cc1 returned HCMV NEC inh -11 and GIV-Gai inh 101.
`Cc1cc(-c2c(C(=O)Sc3ccccc3)c(C)nn2-c2ccccc2)no1` gave Sa growth inh 134, HCMV NEC inh -36, GIV-Gai inh 103 and Sa growth inh second temp 91.
For O=C(CN1CCN(Cc2ccc(F)cc2Cl)S1(=O)=O)N1CCCC1 the results were HCMV NEC inh -8 and GIV-Gai inh 104.
For CCOc1ccc(-n2c(O)c(/C=N/Nc3nnc(C)c(=O)[nH]3)c3ccccc3c2=O)cc1 the results were Sa growth inh 92, HCMV NEC inh -53 and Sa growth inh second temp 93.
O=c1[nH]c(SCc2c(F)cccc2Cl)nc2nc[nH]c12 was read as HCMV NEC inh -2 and GIV-Gai inh 104.
For Cc1cc2c(NC(=O)CC(C)(C)CC(=O)O)cccc2nn1 the results were Sa growth inh 100, HCMV NEC inh -37, GIV-Gai inh 98 and Sa growth inh second temp 91.
For COC(=O)C1=C(C)NC(C)=C(C(=O)OC)C1 the results were Sa growth inh 84, HCMV NEC inh -2, GIV-Gai inh 108 and Sa growth inh second temp 91.
CC1(C)C2CCC1(CS(=O)(=O)N1CCN(Cc3ccccc3)CC1)C(=O)C2 (stereo unspecified) was read as Sa growth inh 99, HCMV NEC inh -28, GIV-Gai inh 104 and Sa growth inh second temp 85.
For COc1ccc(CCC(=O)Nc2ccc(S(=O)(=O)N(C)C)cc2)cc1OC the results were Sa growth inh 104, HCMV NEC inh 9 and Sa growth inh second temp 94.
Screening COC(=O)c1cn(C(=O)c2cccs2)c2ccccc12 returned Sa growth inh 109, HCMV NEC inh -7, GIV-Gai inh 97 and Sa growth inh second temp 84.
`CCSc1ccccc1C(=O)Nc1nc2ccccc2c(=O)[nH]1` gave Sa growth inh 146, HCMV NEC inh -30, GIV-Gai inh 108 and Sa growth inh second temp 94.
`Cc1c(C(=O)N2CCC(C)CC2)c(S(=O)(=O)Nc2ccc(OC(F)(F)F)cc2)c(C)n1C` gave Sa growth inh 70, GIV-Gai inh 101 and Sa growth inh second temp 57.
For O=C(Nc1ccccc1)NC1CCN(CCCN2C(=O)c3ccccc3C2=O)CC1 the results were Sa growth inh 108, HCMV NEC inh 10, GIV-Gai inh 105 and Sa growth inh second temp 78.
Cc1cccc(N2CCN(C(=O)C3CCCN(S(=O)(=O)c4cccc5nonc45)C3)CC2)c1C (stereo unspecified) was read as Sa growth inh 93, GIV-Gai inh 109 and Sa growth inh second temp 83.
For O=C1N/C(=C/c2ccc(C(F)(F)F)cc2)C(=O)N1c1ccccc1 the results were Sa growth inh 124, GIV-Gai inh 97 and Sa growth inh second temp 92.
Screening CC(Oc1ccc(C(C)(C)C)cc1)C(=O)Nc1ccc(S(N)(=O)=O)cc1 (stereo unspecified) returned Sa growth inh 84, HCMV NEC inh -4, GIV-Gai inh 105 and Sa growth inh second temp 79.
COc1ccc(OC)c(C(=O)c2c(N)c(-c3nc(-c4ccc(C)c(C)c4)cs3)c3ccccn23)c1 was read as Sa growth inh 107, HCMV NEC inh -22, GIV-Gai inh 102 and Sa growth inh second temp 89.
COc1ccc(-c2c(C#N)c(=O)n3c(sc4ccccc43)c2C#N)cc1 was read as Sa growth inh 109, HCMV NEC inh 1 and Sa growth inh second temp 101.
Screening O=C(CSc1nc2ccccc2o1)N1CCCc2ccccc21 returned Sa growth inh 93, HCMV NEC inh -8, GIV-Gai inh 102 and Sa growth inh second temp 79.
For Cc1cccc(NC(=O)CCCc2nc(-c3cc4ccc(C)cc4[nH]c3=O)no2)c1 the results were HCMV NEC inh -10 and GIV-Gai inh 106.
CCOC(=O)C1=CN(c2ccc(C)c(C)c2)C=C(C(=O)OCC)C1c1ccccc1F was read as Sa growth inh 80, HCMV NEC inh -13 and Sa growth inh second temp 95.
`CC[N+]1(C)CC2CCC(C)(C1)C2(C)C` (stereo unspecified) gave Sa growth inh 91, GIV-Gai inh 98 and Sa growth inh second temp 104.
Screening COc1ccc(-c2ccc(C#N)c(=O)[nH]2)cc1 returned HCMV NEC inh 0 and GIV-Gai inh 102.
Screening O=C(NC1(C(=O)O)CCCCC1)c1cccs1 returned Sa growth inh 100, HCMV NEC inh -15, GIV-Gai inh 98 and Sa growth inh second temp 89.
For O=C1c2ccccc2C(=O)c2c1oc1c3c(ccc21)OCN(CC1CCCO1)C3 (stereo unspecified) the results were Sa growth inh 93, HCMV NEC inh -25 and Sa growth inh second temp 66.
`C=CCSc1ncnc2c1cnn2-c1ccc(Cl)cc1` gave Sa growth inh 84, HCMV NEC inh -39, GIV-Gai inh 102 and Sa growth inh second temp 86.
S=C(c1cn(Cc2ccccc2)c2ccccc12)N1CCCCC1 was read as Sa growth inh 111, GIV-Gai inh 98 and Sa growth inh second temp 85.
Screening O=C(c1cccc(F)c1F)N1CCCCC1 returned Sa growth inh 96, HCMV NEC inh 6 and Sa growth inh second temp 89.
Screening COC(=O)Cn1cnc2c(cnn2-c2ccccc2C)c1=O returned Sa growth inh 90, HCMV NEC inh -36, GIV-Gai inh 106 and Sa growth inh second temp 86.
Screening CCOCCOC(=O)C1=C(C)NC2=C(C(=O)CC(c3ccc(OC)cc3)C2)C1c1ccc([N+](=O)[O-])cc1 (stereo unspecified) returned HCMV NEC inh -31 and GIV-Gai inh 101.
`FC(F)(F)c1cc(-c2ccccn2)nc2cc(C3CC3)nn12` gave Sa growth inh 110, HCMV NEC inh 1, GIV-Gai inh 105 and Sa growth inh second temp 96.
`CC(=O)c1ccc(N2CCN(C(=O)Nc3cn(CC(C)C)c(=O)c4ccccc34)CC2)cc1` gave Sa growth inh 91, GIV-Gai inh 103 and Sa growth inh second temp 80.
`CCOC(=O)C1=C(C)N=c2s/c(=C\c3ccc(OC(C)=O)c(OC)c3)c(=O)n2C1c1ccc(OCC)c(OCC)c1` (stereo unspecified) gave HCMV NEC inh -13 and GIV-Gai inh 110.
CC1CC(=O)N(CC(=O)Nc2ccc(OC(F)(F)F)cc2)c2ccccc2S1 (stereo unspecified) was read as Sa growth inh 110, HCMV NEC inh -16, GIV-Gai inh 104 and Sa growth inh second temp 85.
CCOc1cccc(C(=O)Nc2nc3c(s2)CC(C(C)(C)C)CC3)c1 (stereo unspecified) was read as Sa growth inh 89, HCMV NEC inh 10, GIV-Gai inh 106 and Sa growth inh second temp 80.
For Cn1c(C2COc3ccccc3O2)n[nH]c1=S (stereo unspecified) the results were Sa growth inh 84, HCMV NEC inh 15, GIV-Gai inh 99 and Sa growth inh second temp 92.
CCOC(=O)c1cc2c(ccn2-c2ccc(F)cc2)n1CC(=O)Nc1ccc(OC)cc1 was read as Sa growth inh 100, HCMV NEC inh 9, GIV-Gai inh 101 and Sa growth inh second temp 89.
For COCCn1c(C)cc(C(=O)COc2ccc3c(c2)OCO3)c1C the results were Sa growth inh 85, HCMV NEC inh -25 and Sa growth inh second temp 95.
For CCSC1=NCN(CCCC(=O)O)CN1 the results were Sa growth inh 90, HCMV NEC inh -30, GIV-Gai inh 105 and Sa growth inh second temp 77.
For Cc1cc(NC(=O)C2CC(c3c(F)cccc3Cl)=NO2)n(-c2ccccc2)n1 (stereo unspecified) the results were HCMV NEC inh -2 and GIV-Gai inh 102.
For O=C(Nc1ccc2ccccc2c1)C(=O)c1c(O)[nH]c2ccccc12 the results were Sa growth inh 98, GIV-Gai inh 98 and Sa growth inh second temp 84.
Screening Cc1ccc(S(=O)(=O)n2nc(-c3ccccc3)nc2N)cc1 returned HCMV NEC inh 0 and GIV-Gai inh 104.
Cc1c(C(=O)NCCc2ccc(S(N)(=O)=O)cc2)sc2nc3n(c(=O)c12)CCCC3 was read as Sa growth inh 104, HCMV NEC inh -16, GIV-Gai inh 99 and Sa growth inh second temp 94.
Screening O=C(c1ccc(Cl)cc1)N(Cc1cccs1)C1CCS(=O)(=O)C1 (stereo unspecified) returned Sa growth inh 103, HCMV NEC inh -2, GIV-Gai inh 101 and Sa growth inh second temp 100.
Screening CC(C)CC(=O)Nc1nc(-c2ccccc2)ns1 returned HCMV NEC inh -4 and GIV-Gai inh 104.
Screening CC(C)(C)OC(=O)NC1CCN(c2nccc(C(F)(F)F)n2)CC1 returned Sa growth inh 102, GIV-Gai inh 108 and Sa growth inh second temp 96.
For NC(=O)CSc1nnc(-c2ccccc2Br)n1Cc1ccccc1 the results were Sa growth inh 95, HCMV NEC inh -23 and Sa growth inh second temp 85.
For O=C(NCCc1c[nH]c2ccccc12)c1ccccc1F the results were HCMV NEC inh -5 and GIV-Gai inh 99.
O=C1c2ccncc2C(=O)N1c1ccc(N2CCOCC2)cc1 was read as Sa growth inh 96, HCMV NEC inh -40, GIV-Gai inh 102 and Sa growth inh second temp 88.
`O=C(Nc1cccc(Cl)c1)c1cccs1` gave Sa growth inh 92, HCMV NEC inh -13, GIV-Gai inh 104 and Sa growth inh second temp 89.
Screening COc1cc(C(=O)Nc2cc(C)ccc2OCc2cc(=O)n3cc(C)sc3n2)cc(OC)c1OC returned Sa growth inh 88, GIV-Gai inh 103 and Sa growth inh second temp 84.
For O=C(O)CCc1nn2cnc3sc4c(c3c2nc1=O)CCCC4 the results were Sa growth inh 102, HCMV NEC inh -20, GIV-Gai inh 105 and Sa growth inh second temp 98.
Screening COc1ccc(-n2cc(C(=O)Nc3cnc4ccccc4c3)nn2)cc1 returned HCMV NEC inh -1 and GIV-Gai inh 103.
CCCNC(=O)NC1CCC(CC)CC1 (stereo unspecified) was read as Sa growth inh 83, HCMV NEC inh -32, GIV-Gai inh 101 and Sa growth inh second temp 99.
Screening CCOC(=O)c1c(C)nc2c(c1C)c(=O)oc1ccccc12 returned Sa growth inh 107, HCMV NEC inh -16, GIV-Gai inh 101 and Sa growth inh second temp 78.
`CC(C(=O)O)c1nn(C)c(=O)c2ccccc12` (stereo unspecified) gave Sa growth inh 81, HCMV NEC inh 3, GIV-Gai inh 101 and Sa growth inh second temp 109.
`NC(=O)c1cc2cc(Cl)cc(Cl)c2oc1=Nc1cccc(C(F)(F)F)c1` gave HCMV NEC inh -16 and GIV-Gai inh 104.
For CCn1nc(C)c(CCN(C)C(=O)Nc2cc(OC)cc(OC)c2)c1C the results were HCMV NEC inh -15 and GIV-Gai inh 102.
For Cc1cc(-c2ccccc2)n[nH]1 the results were Sa growth inh 154&149, HCMV NEC inh -31&-7, GIV-Gai inh 105 and Sa growth inh second temp 74&94.
`N=C(N)c1ccc(Cl)cc1` gave Sa growth inh 112, HCMV NEC inh -5 and Sa growth inh second temp 89.
Screening Cc1cc(C)c(NC(=O)CSc2nnc(CNC(=O)c3c(F)cccc3Cl)o2)c(C)c1 returned Sa growth inh 97, HCMV NEC inh -19, GIV-Gai inh 95 and Sa growth inh second temp 92.
`CC(CCc1ccccc1)NC(=O)CSc1nc2ccccc2[nH]1` (stereo unspecified) gave Sa growth inh 91, HCMV NEC inh 12 and Sa growth inh second temp 101.

Compounds listed so far that have a Cl atom (9):
For O=C(CN1CCN(Cc2ccc(F)cc2Cl)S1(=O)=O)N1CCCC1 the results were HCMV NEC inh -8 and GIV-Gai inh 104.
O=c1[nH]c(SCc2c(F)cccc2Cl)nc2nc[nH]c12 was read as HCMV NEC inh -2 and GIV-Gai inh 104.
`C=CCSc1ncnc2c1cnn2-c1ccc(Cl)cc1` gave Sa growth inh 84, HCMV NEC inh -39, GIV-Gai inh 102 and Sa growth inh second temp 86.
For Cc1cc(NC(=O)C2CC(c3c(F)cccc3Cl)=NO2)n(-c2ccccc2)n1 (stereo unspecified) the results were HCMV NEC inh -2 and GIV-Gai inh 102.
Screening O=C(c1ccc(Cl)cc1)N(Cc1cccs1)C1CCS(=O)(=O)C1 (stereo unspecified) returned Sa growth inh 103, HCMV NEC inh -2, GIV-Gai inh 101 and Sa growth inh second temp 100.
`O=C(Nc1cccc(Cl)c1)c1cccs1` gave Sa growth inh 92, HCMV NEC inh -13, GIV-Gai inh 104 and Sa growth inh second temp 89.
`NC(=O)c1cc2cc(Cl)cc(Cl)c2oc1=Nc1cccc(C(F)(F)F)c1` gave HCMV NEC inh -16 and GIV-Gai inh 104.
`N=C(N)c1ccc(Cl)cc1` gave Sa growth inh 112, HCMV NEC inh -5 and Sa growth inh second temp 89.
Screening Cc1cc(C)c(NC(=O)CSc2nnc(CNC(=O)c3c(F)cccc3Cl)o2)c(C)c1 returned Sa growth inh 97, HCMV NEC inh -19, GIV-Gai inh 95 and Sa growth inh second temp 92.
